2A Renilla: FMDV 2A StopGo reporter, Renilla signal. Potency, µM (top dose mostly 57.5 µM), for inactives: at the highest dose signal change, negative = less light. HEK cells with a luciferase reporter of 2A StopGo recoding. AID 1745857. 120,000 compounds, 0.32% hits; active means well fitted falling curve with a large enough effect; inconclusive means small, poorly fitted or top-dose-only effect; inactive means no such curve, though single readings can be large or run the other way; also: nearly all actives have a fitted effect of over 55% in size; overnight with compound
StopGo FLuc: lowers the firefly signal of an FMDV 2A StopGo reporter. HEK cells with a luciferase reporter of 2A StopGo recoding. Potency, µM (highest dose often 57.5 µM), inactives show top-dose signal change, negative = less light. 120,000 compounds, 0.23% hits; active = well fitted falling curve with a large enough effect; inconclusive = small, poorly fitted or top-dose-only effect; inactive = no such curve, though single readings can be large or run the other way; also: nearly all actives have a fitted effect of over 60% in size; overnight with compound
An asterisk follows results filed as active; ? = inconclusive; [ ] = dose if it differs, or a comment. % is scaled to controls: 0 for no effect and ±100 for the full control effect; potency is read from the fitted curve at half-maximal effect. Some of the compounds tested; count on the stated rates, not on these rows.

Results follow in this order: 2A Renilla, StopGo FLuc
O=c1c2c(nc3nc(NCc4ccc(Cl)cc4)[nH]n13)CCC2
  -0.6%, 10.4%
CCOc1ccc(C2C(=O)N(C3CCCCC3)CC(=O)N2Cc2ccc(F)cc2)cc1OC (stereo not given)
  7.2%, -23.9%
CC(C)(C)c1ccc(-c2nc(C#N)c(NCc3ccccc3)o2)cc1
  15.7%, 128.3%[activator]
Cc1ccc(C(=O)c2ccccc2C(=O)OCCOc2ccc(Cl)cc2Cl)cc1
  7.9%[1.06 µM], 6.6%
Cc1ccc(N=C/C(C(=O)C(F)(F)F)=C(\O)c2cccs2)cc1C
  9.7%, 177.8%[activator]
O=C(O)c1cccc(-c2cccc(F)c2)c1
  2.6%, 76.2%[activator]
CCC(=O)Nc1ccc(S(=O)(=O)NCCn2nc(-c3ccc(Cl)cc3)ccc2=O)cc1
  10.1%, 0.0%
N#Cc1ccccc1COC(=O)/C=C/c1ccc(OC(F)F)cc1
  -1.9%, -1.8%
Cc1cccc(N2CCN(C(=O)C(C)n3nc(C)n4c(cc5occc54)c3=O)CC2)c1C (stereo not given)
  -10.5%, -3.6%
Cc1[nH]nc2c1C(c1ccccc1)SCC(=O)N2 (stereo not given)
  8.8%, 18.0%

(continued)
Results follow in this order: 2A Renilla, StopGo FLuc
CCCc1cnc2c(c1SCC(=O)Nc1ccc([N+](=O)[O-])cc1)c(=O)n(C)c(=O)n2C
  9.5%, -14.3%
CCc1nnc(NC(=O)c2nc(SCc3ccc(F)cc3)ncc2Cl)s1
  12.8%, -15.1%
CC(NC(=O)Cc1ccc(F)cc1)C(=O)N1CCC2(CC1)NCCc1[nH]cnc12 (stereo not given)
  -15.7%, ?
COc1ccc(N(C(=O)c2ccc(C)cc2)S(=O)(=O)c2ccc(Cl)cc2)cc1
  -3.9%, -9.2%
Cc1ccccc1CSc1nc2cc(C(=O)NC3CCCC3)ccc2c(=O)n1Cc1ccccc1
  -14.2%, -21.2%
Cc1ccc(-c2cnc(C3CC3)o2)cc1S(=O)(=O)Nc1cccc(C)c1C
  165.0%[activator], -4.1%
COC(=O)NCC(=O)NC(c1ccccc1)C(C)C (stereo not given)
  4.6%, -3.1%
O=C(Nc1ccc2nc(N3CCN(C4CCCCC4)CC3)cc(C(=O)O)c2c1)c1cccc(Cl)c1
  -6.2%, -1.9%
COc1ccc(NC(=O)CN(C)S(=O)(=O)c2ccc3c(c2)CCCN3C(C)=O)cc1Cl
  -15.0%, -25.8%
Cc1ccc(-c2cc(C(=O)NCC(=O)N(C)C)c3ccccc3n2)cc1
  -14.1%, -2.4%

(more compounds)
Results follow in this order: 2A Renilla, StopGo FLuc
Cc1cccc(Cn2c(=O)n(CCc3ccccc3)c(=O)c3c(C)c(C)sc32)c1
  -7.0%, -6.8%
Cc1ccc(-n2c(SCC(=O)O)nc3sc4c(c3c2=O)CCCC4)cc1
  5.5%, 23.6%
CCc1ccc(C(CNS(=O)(=O)c2cccs2)N(C)C)cc1 (stereo not given)
  10.3%, -8.3%
NC(=O)C(c1ccccc1)(c1ccccc1)c1ccccc1
  -3.4%, -8.2%
COc1cc(OC)cc(-c2nn3c(CN4CCCCC4)nnc3s2)c1
  2.8%, 2.0%
Cc1ccc(NC(=O)Cn2nnc(-c3nc(-c4ccncc4)no3)c2N)c(C)c1
  5.8%, 5.0%
CCOc1ccc(-c2nc(CNC(=O)Nc3ccc(Cl)cc3)c(C)o2)cc1
  -2.9%, 44.0%[activator]
CCc1ccc(S(=O)(=O)c2cn(C)c3cc(OC)c(OC)cc3c2=O)cc1
  -2.4%, 7.6%
Cc1cc2oc(=O)cc(CN3CCN(c4ccccc4O)CC3)c2cc1Cl
  -13.9%, -1.4%
CC(=O)Oc1cccc(C(=O)Nc2cc(Cl)ccc2O)c1
  4.0%, 0.0%

Following part:
Results follow in this order: 2A Renilla, StopGo FLuc
Cc1sc2c(c1C)c(=O)n(Cc1ccccc1)c(=O)n2Cc1ccc(F)cc1
  -10.2%, -9.4%
CCSc1nnc([C@@H](N)Cc2c[nH]c3ccccc23)o1
  -3.2%, 0.0%
CCn1cc(C(=O)NC2CCC(C)CC2)c2ccccc21 (stereo not given)
  29.2%, 0.0%
COC(=O)c1ccc(COc2ccccc2Cc2ccccc2)o1
  11.8%, 0.0%
COc1ccc(-n2ccn3c(CC(C)(C)CC(=O)O)nnc3c2=O)cc1
  -4.7%, 2.0%
Cc1c(C(=O)O)oc2c(C)cccc12
  7.6%, 15.4%
O=C(CCS(=O)(=O)c1cc2c(cc1Cl)NC(=O)CO2)NCCc1ccc(Cl)cc1
  -1.2%, -15.4%
CN(C)C(=O)C(Sc1nc2cc(S(=O)(=O)N3CCCCC3)ccc2o1)c1ccccc1 (stereo not given)
  12.3%, ?
CCOC(=O)c1cc(C)n(CC2CCC(C(=O)Nc3ccc(C(C)=O)cc3)CC2)c1C (stereo not given)
  ?, ?
O=Cc1ccc(OCc2cccc3ccccc23)c(Cl)c1
  50.5%[activator], 173.7%[activator]

Seven compounds picked at random from the list so far, as already listed:
Results follow in this order: 2A Renilla, StopGo FLuc
Cc1ccc(NC(=O)Cn2nnc(-c3nc(-c4ccncc4)no3)c2N)c(C)c1
  5.8%, 5.0%
Cc1c(C(=O)O)oc2c(C)cccc12
  7.6%, 15.4%
CC(=O)Oc1cccc(C(=O)Nc2cc(Cl)ccc2O)c1
  4.0%, 0.0%
NC(=O)C(c1ccccc1)(c1ccccc1)c1ccccc1
  -3.4%, -8.2%
O=Cc1ccc(OCc2cccc3ccccc23)c(Cl)c1
  50.5%[activator], 173.7%[activator]
CC(NC(=O)Cc1ccc(F)cc1)C(=O)N1CCC2(CC1)NCCc1[nH]cnc12 (stereo not given)
  -15.7%, ?
O=C(Nc1ccc2nc(N3CCN(C4CCCCC4)CC3)cc(C(=O)O)c2c1)c1cccc(Cl)c1
  -6.2%, -1.9%

Going on with the list:
Results follow in this order: 2A Renilla, StopGo FLuc
Cc1ccc(Nc2nnc(SCC(=O)NC(C)(C)C)s2)cc1C
  6.4%, 0.0%
COC(=O)c1cc2sccc2n1Cc1nc(-c2cccc(Br)c2)oc1C
  5.4%, 19.2%
CCNC(=O)NC(=O)C(C)N1CCN(c2ccc(F)cc2)CC1 (stereo not given)
  -6.0%, 3.3%
CC(C)CCNC(=S)Nc1cccc(Cl)c1
  100.2%[activator], 38.2%[activator]
COC1C(C2COC3(CCCCC3)O2)OC2OC3(CCCCC3)OC21 (stereo not given)
  4.1%, 21.2%
O=C(Nc1ccccc1C(F)(F)F)c1cc(-c2ccc3c(c2)OCCO3)on1
  -5.4%, 139.7%[activator]
Cc1ccc(C(=O)NCC(c2cccs2)S(=O)(=O)c2cccs2)cc1C (stereo not given)
  23.0%, 1.3%
Fc1ccc(/C=N/Nc2c(Cl)cc(Cl)cc2Cl)c(F)c1
  7.9%, 54.0%[activator]
CCOc1ccccc1CNS(=O)(=O)c1ccc2c(c1)C(C)(C)C(=O)N2C
  72.8%[activator], 8.3%
CCN(C(=O)CN1CCC(c2cc3ccccc3[nH]2)CC1)C1CC1
  -6.4%, -1.9%

(listing goes on)
Results follow in this order: 2A Renilla, StopGo FLuc
COc1ccc(C)cc1NS(=O)(=O)c1cc(-c2cnc(C)o2)ccc1C
  0.0%, -9.9%
Cc1nc(SCC(=O)Nc2ccc3ccccc3c2)oc1C
  ?, 0.0%
CC(C)C(C#CC1CC1)N(Cc1ccc2c(c1)OCO2)C(N)=NC(=O)/C=C/c1ccccc1 (stereo not given)
  158.6%[activator], -2.8%
CC(C)(C)c1ccc(OCC(=O)N2CCC(c3nc4ccccc4s3)CC2)cc1
  -10.9%, -14.2%
COc1ccc(CN(Cc2cc(=O)oc3cc(C)c(C)cc23)C2CC2)cc1
  72.0%[activator], 18.4%
CCCCCCCCOc1ccc(/C=C(/C#N)C(=O)NCc2ccccc2)cc1
  1.9%, -9.1%
COCc1cc(C)nc2sc3c(c12)NC(c1ccc(O)cc1)N(c1ccc(C)cc1)C3=O (stereo not given)
  -15.8%, 105.4%[activator]
Nc1cccc2c1C(=O)NC2
  -5.9%, -4.8%
O=C(NC1CC1)c1ccc2ccccc2n1
  12.1%, 133.8%[activator]
COc1ccc(C(CNC(=O)c2ccc(Cl)s2)N2CCOCC2)cc1 (stereo not given)
  102.9%[activator], 1.5%

Part of the list above in order of length of the SMILES, lowest first:
Results follow in this order: 2A Renilla, StopGo FLuc
Nc1cccc2c1C(=O)NC2
  -5.9%, -4.8%
Cc1nc(SCC(=O)Nc2ccc3ccccc3c2)oc1C
  ?, 0.0%
COCc1cc(C)nc2sc3c(c12)NC(c1ccc(O)cc1)N(c1ccc(C)cc1)C3=O (stereo not given)
  -15.8%, 105.4%[activator]

The listing continues.
Results follow in this order: 2A Renilla, StopGo FLuc
COc1cc2c(C(=O)N(C)c3cc(Cl)ccc3OC)cn(CC(C)C)c(=O)c2cc1OC
  -1.7%, -31.1%
Cc1cc(Nc2cccc(Cl)c2)nc(NCc2ccccc2)n1
  ?, -23.4%
COc1ccc(NC(=O)CC(C)S(=O)(=O)c2cc3c(cc2C)NC(=O)CO3)cc1OC (stereo not given)
  -3.2%, -4.2%
CCCS(=O)(=O)CCSS(=O)(=O)O
  6.6%, 5.6%
COc1ccc(CNC(=O)Cc2c(C)c3ccc(OC)c(OC)c3oc2=O)c(OC)c1
  -4.2%, 6.0%
CCN(Cc1nc2ccccc2c(=O)[nH]1)C(=O)Cc1csc(-c2ccc(OC)cc2)n1
  ?, ?
CC(C)CNC(=O)c1nn(Cc2ccccc2)c(=O)c2ccccc12
  57.8%[activator], 15.1%
CC(=O)c1ccc(N2CCN(C(=O)c3csc(-c4ccc(C)cc4)n3)CC2)cc1
  -2.7%, 15.8%
O=C(CCC1CCCC1)NCCCCNC(=O)CCC1CCCC1
  10.0%, 5.1%
O=C(Nc1ccc2c(c1)OCO2)C1CCN(C(=O)c2oc3ccccc3c2COc2ccccc2)CC1
  -4.0%, -24.4%

Further results:
Results follow in this order: 2A Renilla, StopGo FLuc
Cc1ccc(-n2cnc3cc(C(=O)NC4CCCCCC4)ccc32)c(C)c1
  76.8%[activator], 0.2%
CC(C)C(NC(=O)C1CC1)c1ccccc1 (stereo not given)
  11.3%, 4.1%
CC(CCNC(=O)c1ccncc1)c1ccccc1 (stereo not given)
  -4.1%, 0.3%
COc1ccc(-c2nc(-c3cc4cc(Br)ccc4oc3=O)cs2)cc1
  -1.8%, 2.3%
O=C(/C=C/c1cccs1)OCC(=O)c1ccccc1
  6.0%, 146.1%[activator]
O=C(Nc1cccc(C(=O)OCc2cc(=O)n3nc(C4CC4)sc3n2)c1)c1cccc(Cl)c1
  6.0%, -2.8%
Cc1cc(C)c(NC(=O)Cn2c(=O)n(Cc3ccc(C(=O)NCc4ccco4)cc3)c(=O)c3sccc32)c(C)c1
  -14.5%, -13.9%
CC(=O)c1cccc(NC(=O)C(Sc2ccc(C(F)(F)F)cn2)c2ccccc2)c1 (stereo not given)
  49.5%[activator], -21.2%
O=C(NCc1ccco1)c1ccc(Cn2c(SCc3ccccc3F)nc3cccnc32)cc1
  3.2%, 53.7%[activator]
COc1cc(OC)c(NC(=O)CSc2nncn3c2cc2oc(C)cc23)cc1Cl
  46.1%[activator], 62.9%[activator]

(list continues)
Results follow in this order: 2A Renilla, StopGo FLuc
O=C(CCCn1c(=O)c2ccccc2n(Cc2cccc(F)c2)c1=O)NCc1ccccc1Cl
  -19.5%, ?
CC[C@@H](CO)NC(=O)[C@@H]1C=C2c3cccc4c3c(cn4C)C[C@H]2N(C)C1
  -9.1%, -10.4%[11.5 µM]
CCN(CC)c1ccc(CNC(=O)c2scnc2C)cn1
  ?, -33.3%
Nc1nonc1-c1nc2ccccc2n1CC(=O)Nc1ccccc1C(=O)O
  -0.9%, 13.1%
CN(C)C(=O)c1ccc(CNc2nc3ccccc3o2)cc1
  15.5%, 181.8%[activator]
Cc1ccc(Cn2c(CNC(=O)c3ccc(Cl)c([N+](=O)[O-])c3)nc3cccnc32)cc1
  5.1%, -15.5%
C/C(=N/Nc1ccc(S(=O)(=O)Nc2ccc(Cl)cc2)cc1[N+](=O)[O-])c1cccc([N+](=O)[O-])c1
  216.4%[activator], 6.9%
CCOC(=O)C1=C(CN2CCN(CC)CC2)NC(=O)NC1c1ccc(Cl)cc1 (stereo not given)
  -14.9%, -22.5%
CCCSc1nc2c(c(=O)[nH]c(=O)n2C)n1CCOC
  -6.2%, 2.7%

Screening results from PubChem.
